KCNQ2 enhance: potentiators of rat KCNQ2 potassium channel. CHO-K1 KCNQ2, FluxOR thallium flux fluorescence; hits give high values. B-score at 10 µM. actives 0.54% (n = 310,000). AID 2239;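 active means fluorescence ratio B-score at least 3 SD of library B-scores, with initial fluorescence B-score within 3 SD, cut at about 5.3 in these data; same plate scores as AID 2156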;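 further: B-score of peak minus minimum over baseline fluorescence ratio after K+ and Tl+ stimulus; positive B-score means potentiation of KCNQ2 with more thallium influx and brighter signal; only the inactives scoring about 0 or higher are listed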
Target sequence (O88943 whole entry, looked up): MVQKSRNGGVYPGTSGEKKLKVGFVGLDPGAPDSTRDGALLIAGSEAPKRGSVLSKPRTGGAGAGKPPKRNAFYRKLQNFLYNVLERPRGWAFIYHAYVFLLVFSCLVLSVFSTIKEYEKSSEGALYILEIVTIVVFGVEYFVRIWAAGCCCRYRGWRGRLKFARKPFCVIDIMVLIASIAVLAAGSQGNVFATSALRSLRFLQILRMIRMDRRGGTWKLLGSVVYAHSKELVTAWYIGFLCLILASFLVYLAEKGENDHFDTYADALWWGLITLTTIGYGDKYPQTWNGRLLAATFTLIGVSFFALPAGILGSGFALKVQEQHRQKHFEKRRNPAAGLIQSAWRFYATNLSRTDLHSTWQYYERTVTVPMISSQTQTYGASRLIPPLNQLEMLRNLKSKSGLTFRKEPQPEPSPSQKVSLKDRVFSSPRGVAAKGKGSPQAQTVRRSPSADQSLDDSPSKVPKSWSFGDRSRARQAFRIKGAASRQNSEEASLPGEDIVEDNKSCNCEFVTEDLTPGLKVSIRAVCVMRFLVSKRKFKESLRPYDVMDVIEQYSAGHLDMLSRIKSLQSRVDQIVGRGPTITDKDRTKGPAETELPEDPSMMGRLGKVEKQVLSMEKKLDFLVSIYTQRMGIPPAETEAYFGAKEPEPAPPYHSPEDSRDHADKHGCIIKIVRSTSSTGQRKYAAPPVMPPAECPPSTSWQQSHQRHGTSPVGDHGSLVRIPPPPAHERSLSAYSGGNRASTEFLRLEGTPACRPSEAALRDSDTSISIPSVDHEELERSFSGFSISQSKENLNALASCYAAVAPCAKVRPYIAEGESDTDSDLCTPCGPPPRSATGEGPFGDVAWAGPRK
KCNQ2 enhance baseline: second read-out of KCNQ2 enhance, no call of its own (marks repeat the call); B-score; compound at 10 µM; measured here: initial fluorescence intensity artifact check;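 brightness before thallium and not channel activity; 0 = typical well and far values either way flag optical interference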
The depositor's hits bear a star; nt = not tested or not shown. Not all compounds are listed; count on the stated rates, not on these rows.

SMILES | KCNQ2 enhance | KCNQ2 enhance baseline
Cc1ccc(CNC(=O)CCCOc2cc(=O)n(C)c3ccccc23)o1 | 0.97 | 0.81
O=C(CCCc1ccccc1)N=C1SC2CS(=O)(=O)CC2N1c1ccccc1 (centres undefined) | 1.3 | 0.22
CC1=C(C(=O)OC(C)C)C(c2cccs2)n2ncnc2N1 (centres undefined) | 0.01 | 6.7
COc1ccc(C(=O)N/C(=C\c2cn(C)c3ccccc23)C(=O)N2CCN(C)CC2)cc1 | 0.04 | 0.54
NC(=O)C1CCN(C(=O)CCSc2ccc(Cl)cc2)CC1 | 0.73 | -1.2
COc1ccc(-n2c(SCC(=O)Nc3ccc4c(c3)OCO4)nc3c(c2=O)SCC3)cc1 | 0.05 | 0.42
Cc1ccc(C)c(N2CCN(C(=O)CCS(=O)(=O)c3ccc4c(c3)NC(=O)CO4)CC2)c1 | 0.24 | -1.7
COc1cc2c(cc1OC)C(c1ccccc1N)=NCC2 | 0.72 | -2.4
S=c1[nH]nc(-c2ccc(Cl)cc2Cl)n1Cc1ccccc1 | 0.16 | -0.13
CCN(CC)CCN1C(=O)c2ccccc2NC1c1ccc(C)cc1 (centres undefined) | 1.2 | 0.03
CN1Cc2c(N3CCOCC3)nc(SCCC#N)c(C#N)c2CC1(C)C | 1.5 | -1.5
COc1ccc(NC2CCCN(C(=O)CCCn3cncn3)C2)cc1OC (centres undefined) | 0.46 | 0.01
C/C(=N/NS(=O)(=O)c1ccccc1)c1c[nH]c2ccccc12 | 0.02 | 0.21
CCCC(NS(=O)(=O)c1ccc(Br)cc1)C(=O)O (centres undefined) | 0.53 | 1.2
CC(=O)Nc1ccc(S(=O)(=O)N2CCc3cc4c(cc3C2)OCCCO4)cc1 | 0.1 | 2.9
Cc1ccc(/C=N/NC(=O)CNC(=O)c2ccc(S(=O)(=O)N(C)C)cc2)o1 | 0.61 | 1.4
CCCN1C(=O)C(O)(CC(=O)c2ccc3c(c2)OCCO3)c2ccccc21 (centres undefined) | 0.62 | -1.2
Cc1c(Cc2ccccc2)c(=O)oc2cc(OCc3ccc(C(=O)O)cc3)ccc12 | 1.4 | -1.3
CCCCC(=O)N/N=C/c1ccc(Sc2cccc3cccnc23)o1 | 2.4 | 2
O=C(Nc1cc(Cl)ccc1Cl)Nn1cnnc1 | 0.01 | -1.4

Rewritten with two lines to a compound: part of the list above.
Values run as follows: KCNQ2 enhance | KCNQ2 enhance baseline
- Cc1c(Cc2ccccc2)c(=O)oc2cc(OCc3ccc(C(=O)O)cc3)ccc12
  1.4 | -1.3
- COc1ccc(NC2CCCN(C(=O)CCCn3cncn3)C2)cc1OC (centres undefined)
  0.46 | 0.01

(listing goes on)
SMILES | KCNQ2 enhance | KCNQ2 enhance baseline
CN1CCN(C(=O)CCNC(=O)Cn2cnc3ccccc3c2=O)CC1 | 0.71 | -2
CCOc1ccccc1C(=O)NCC(=O)NCC1CCCCC1 | 0.21 | 1.3
O=[N+]([O-])c1cnn(-c2nc(-c3cccs3)cc(C(F)(F)F)n2)c1 | 2.9 | 1.9
Cc1nc(NC(=O)c2cccs2)ccc1Br | 0.05 | -0.86
Cc1nc2ccc(NC(=O)/C=C/C(=O)O)cc2nc1C | 0.42 | 0.95
CCCCN(Cc1cc2cc(C)ccc2[nH]c1=O)C(=O)c1ccccn1 | 0.73 | 1.7
COc1cc(-n2c(=O)c3ccccc3n(Cc3cccc(F)c3)c2=O)cc(OC)c1OC | 0.09 | -1.5
CCOC(=O)N1CCN(C(=O)c2cc3c(-c4cccc(OC)c4)nn(C)c3s2)CC1 | 0.37 | -2.4
O=C(/C=C/c1ccco1)NC(=S)Nc1cccc(-c2nc3ccccc3o2)c1 | 0.46 | -0.24
Cc1ccccc1CN1CCN(S(=O)(=O)c2ccc(Cl)s2)CC1 | 0.31 | -2.4
CCc1ccc(Nc2ncccc2C#N)cc1 | 0.13 | 0.35
CNc1nnc(-c2cccc(N(C)C)c2)s1 | 0.09 | -0.65
CN(C)/C=C(/C(=O)c1ccccc1)n1cncn1 | 2.1 | 2.9
CCOc1ccc(OCC)c(NC(=O)C2CCN(c3cnccn3)CC2)c1 | 1.5 | 1.1
Cc1ccccc1NC(NC(=O)OCCn1c([N+](=O)[O-])cnc1C)C(Cl)(Cl)Cl (centres undefined) | 0.38 | -0.76
Nc1nc(-c2c[nH]c3ccccc23)cs1 | 1.2 | -2
Cc1oc(C(C)(C)C)cc1C(=O)NC(Cc1ccccc1)C(=O)O (centres undefined) | 1.3 | 0.04
Cc1cccc(C)c1NC(=O)N1CCC(n2c(=O)[nH]c3ccccc32)CC1 | 1.2 | 0.02
Cc1ccccc1NC(=O)C1CC(=O)OC12CCOC(C)(C)C2 (centres undefined) | 2.9 | 4.4
O=C(CCCCCNC(=O)N1CCn2c1nc1ccccc12)N[C@H](Cc1ccccc1)C(=O)O | 0.55 | -0.26
COc1cc(OC)c(OC)cc1/C=N/NC(=O)CCc1c(C)n[nH]c1C | 0.21 | -0.04
COc1cccc(/C=N/n2cnnc2)c1OCc1ccccc1 | 0.2 | -0.3
C=CCN(c1ccc(OC)cc1)S(=O)(=O)c1ccc(Cl)c(C(=O)OCC(=O)NC2CC2)c1 | 5.1 | -0.73
O=C(O)C1=C(C(=O)Nc2cc(C(F)(F)F)ccc2Cl)CCCC1 | 0.67 | -2.8
Cc1ccc2c(CC(=O)N(CC3CCCO3)c3c(N)n(Cc4ccccc4)c(=O)[nH]c3=O)coc2c1 (centres undefined) | 1.2 | 2.2
CCN1CCc2c(OCC(=O)N3CCc4ccccc43)cccc2C1=O | 0.6 | 1.4
C[N+]1(C)CCCC(OC(=O)C(O)(c2ccccc2)c2ccccc2)C1 (centres undefined) | 0.01 | 0.02
CCOC(=O)Cc1nn2c(=O)cc(C)nc2s1 | 0.98 | -1.2
COCC(=O)OCC(=O)N1N=C(c2ccc(Cl)cc2)CC1c1ccco1 (centres undefined) | 1.6 | 0.81
Cc1ccc(S(=O)(=O)CCC(=O)OCC(=O)NCCc2ccccc2)cc1 | 2.2 | 0.52
Cc1c(C(=O)Nc2cccc([N+](=O)[O-])c2)sc2ncn(CC(=O)N3CCOCC3)c(=O)c12 | 2.7 | 0.01
COCC(C)n1c(SC(C)C(=O)NC2CCCCC2C)nc2ccccc2c1=O (centres undefined) | 0.25 | 0.88
COc1ccc(C2=NS(=O)(=O)N(C)C(C(=O)NCc3ccco3)=C2)cc1OC | 1.5 | -0.68
COc1ccc(C(=O)Nc2sc(C(=O)N(C)C)c(C)c2C#N)cc1[N+](=O)[O-] | 1.2 | -0.63
CC(=O)c1cccc(NC(=O)C(CC(C)C)NC(=O)C2CCCCC2)c1 (centres undefined) | 0.78 | 0.02
O=C(Cn1nnc2ccccc2c1=O)NCc1ccco1 | 1.6 | -1.4
CC1Cc2ccccc2N1C(=S)NC(=O)c1ccco1 (centres undefined) | 3.1 | -0.37
Fc1ccccc1-c1n[nH]c(=S)n1C1CC1 | 0.51 | -0.04
COc1ccccc1C1/C(=C(/O)c2ccc(C)cc2)C(=O)C(=O)N1CCN1CCOCC1 (centres undefined) | 0.08 | 0.85
COC(=O)c1ccc(/C=N/Nc2nc(-c3ccc(C)cc3)cs2)cc1 | 0.58 | -1.5

Quoted from the listing.
Under KCNQ2 enhance baseline, `CC(=O)c1cccc(NC(=O)C(CC(C)C)NC(=O)C2CCCCC2)c1` (centres undefined) shows 0.02
Under KCNQ2 enhance, `CC1Cc2ccccc2N1C(=S)NC(=O)c1ccco1` (centres undefined) shows 3.1
Under KCNQ2 enhance, `COc1ccccc1C1/C(=C(/O)c2ccc(C)cc2)C(=O)C(=O)N1CCN1CCOCC1` (centres undefined) shows 0.08
Under KCNQ2 enhance, `Fc1ccccc1-c1n[nH]c(=S)n1C1CC1` shows 0.51

Next structures:
SMILES | KCNQ2 enhance | KCNQ2 enhance baseline
O=c1cc([O-])[n+]2c3n1CCCN3CCC2 | 0.15 | -0.15
Clc1cc(Cl)c(OCCCCn2cncn2)c(Cl)c1 | 2.4 | 0.79
COc1cccc(CNC(=O)CCCc2nnc3n(C)c(=O)c4sccc4n23)c1 | 0.15 | 0.6
CCCSc1nc2c(c(=O)n(C)c(=O)n2C)n1C | 0.47 | -0.03
CC(C)n1cnc2c(Nc3ccc(F)c(Cl)c3)nc(NCCO)nc21 | 0.05 | 1.1
FC(F)(F)c1ccc(Cl)c(NC(=S)N/N=C/c2ccccc2Cl)c1 | 1.6 | 4.3
CCN(C(=O)c1ccc2c(SCC(=O)O)c3c(nc2c1)CCC3)c1cc(Cl)ccc1OC | 0.96 | -0.89
O=C(O)C1CCCCC1C(=O)NCc1ccc(F)cc1 (centres undefined) | 0.24 | -0.24
COc1cc(C(=O)NC(=S)Nc2ccc(Cc3ccncc3)cc2)cc(OC)c1OC | 0.05 | 0.49
Cc1nc(NC(C)c2ccccc2)sc1C(=O)Nc1ccccc1 (centres undefined) | 1.4 | -1.2
COc1cc(NC(=O)c2ccco2)c(OC)cc1NC(=O)CSc1ncc(-c2ccc(F)cc2)[nH]1 | 0.23 | 0.31
Cc1nn(-c2ccccc2)cc1/C=N/NS(=O)(=O)c1ccccc1 | 0.76 | -0.54
O=C(CN1CCN(Cc2cccc3ccccc23)CC1)NCCc1ccccc1 | 0.23 | -0.79
CC(C)C(=O)Nc1ccc(C(=O)NNC(=O)c2ccco2)cc1 | 0.87 | 0.04
CCCCOC(=O)c1ccc(NC(=O)c2nn(C)cc2Br)cc1 | 1.3 | -1.4
CCOC(=O)C(O)(CC(=O)Nc1ccc(Cl)cc1Cl)C(F)(F)F (centres undefined) | 0.59 | 0.05
O=C(CCC1CCCC1)NCCS(=O)(=O)N1CCN(c2ccc(F)cc2)CC1 | 1.1 | 1.3
CC1(C)CC(=O)C(C=NCC2CCN(C(=S)Nc3cccc(Cl)c3)CC2)=C(O)C1 | 0.46 | 4.7
CCOc1ccccc1NC(=S)N1CCN(c2ccc(O)cc2)CC1 | 0.43 | 0.21
COc1cccc(NC(=O)CN(C)CC(=O)Nc2ccccc2-c2ccccc2)c1 | 1.4 | 1.4
O=C(NCC1CCCO1)C(Cc1ccccc1)N1C(=O)C2C3C=CC(C4CC34)C2C1=O (centres undefined) | 1.4 | -2.4
COc1ccc(NC(=O)C(NC(=O)c2ccc(C)cc2)c2ccccc2)cc1 (centres undefined) | 0.16 | -0.01
COc1ccc(/C=N/NC(=O)c2ccc(Br)cc2)c(OC)c1 | 1.4 | -3.4
O=C(NNC(=S)Nc1ccccc1)C1CC1 | 0.19 | 0.31
COc1ccccc1C(c1c(O)nc(SC)[nH]c1=O)c1c(O)nc(SC)[nH]c1=O | 0.65 | 0.12
CC1(C)CC(=O)c2cnc(NC(=O)CCc3ccccc3)nc2C1 | 1.4 | 3
CCOC(=O)c1ccc(NC(=O)c2nn(CC)cc2Br)cc1 | 2.8 | -2.1
Cc1nn(C)cc1/C=C1\SC(=S)NC1=O | 0.35 | -0.2
CCN1C(=O)[C@H]2[C@@H](c3ccc(C)cc3)N3C(=O)N(c4ccc(C(F)(F)F)cc4)C(=O)[C@@]3(CC)[C@H]2C1=O | 0.89 | 0.06
COc1ccc(Nc2cc(C)nc3nc(C)nn23)c(OC)c1 | 0.89 | 0.67
COc1ccc(CNC2=CC(=O)CC(C)(C)C2)cc1 | 0.1 | 1.6
CCCCOc1ccc(/C=N/NC(=S)Nc2cc(C)ccc2C)cc1 | 0.8 | 0.5
CC(C)C(=O)Nc1ccc(Cc2ccc(NC(=O)C(C)C)c(O)c2)cc1O | 1.6 | 0.45
CC(=O)c1c(C)[nH]c(C(=O)NCCc2ccccc2)c1C | 1.4 | 0
CCCCN(CCCC)C(=S)NC(=O)C(C)(C)C | 1.8 | -0.41
O=C(CSc1ccccc1F)OCC(=O)N1CCN(C(=O)c2ccco2)CC1 | 1.4 | 2.3
CCCCCCCC1(C)NC(=O)N(c2ccccc2)N1 (centres undefined) | 0.02 | 0.25
CCC(C)(C)c1nnc(NC(=O)CCC2CCCCC2)s1 | 0.75 | -5.1
O=C(O)c1nn(CCOc2cccc(Br)c2)c(=O)c2ccccc12 | 1.1 | 0.83
Cc1cc(C(=O)Nn2cnnc2)cs1 | 0.32 | -2.3
CCn1c(SCC(N)=O)nnc1-c1ccco1 | 0.65 | 0.79
COC(=O)c1cccc(N2C(=O)C(Cl)=C(N3CCOCC3)C2=O)c1 | 0.34 | 0.16
CCCC(=O)OC(C(=O)Nc1cc(C(F)(F)F)ccc1Cl)c1ccccc1 (centres undefined) | -5.6 | nt
Clc1cc(Sc2ccc(Br)cc2)nnc1-c1ccccc1 | 0.4 | 0.01
O=C(c1ccc(-n2cncn2)c([N+](=O)[O-])c1)N1CCN(S(=O)(=O)c2ccc(Cl)cc2)CC1 | 2.4 | -0.65
Cc1ccc(NC(=O)/C(C#N)=C/c2cn(CC(=O)NCc3ccco3)c3ccccc23)cc1C | 1 | -0.16
O=C(CSc1nnc2c(Cl)cc(Cl)cn12)N1CCOCC1 | 0.98 | -1.1
COc1cc(/C=N/Nc2ccccn2)cc(OC)c1O | 0.93 | -2
CCC(=O)Nc1ccc(S(=O)(=O)N2CCc3ccccc32)cc1 | 0.64 | 0.07
CC(NC(=O)CCNC(=O)c1ccc(Br)cc1)c1ccc(-n2ccnc2)cc1 (centres undefined) | 1.4 | -0.96
O=C(O)c1ccc(N=Nc2c(O)[nH]c3cc(Cl)ccc23)cc1 | 1.6 | -0.79
N/C(=N\OC(=O)C1CCCCC1)c1cccc(Br)c1 | 1.8 | 0.2
CCOc1ccc(CC(=NCCO)C2=C(O)CC(C)(C)CC2=O)cc1OCC | 0.51 | -0.42

Part of the list above, set out differently:
O=C(Nc1cc(Cl)ccc1Cl)Nn1cnnc1
  KCNQ2 enhance: 0.01	KCNQ2 enhance baseline: -1.4

O=C(O)C1CCCCC1C(=O)NCc1ccc(F)cc1 (centres undefined)
  KCNQ2 enhance: 0.24	KCNQ2 enhance baseline: -0.24

O=C(O)C1=C(C(=O)Nc2cc(C(F)(F)F)ccc2Cl)CCCC1
  KCNQ2 enhance: 0.67	KCNQ2 enhance baseline: -2.8

CCOC(=O)Cc1nn2c(=O)cc(C)nc2s1
  KCNQ2 enhance: 0.98	KCNQ2 enhance baseline: -1.2
